Beta apoptosis: blocks beta cell apoptosis | INS-1E cytokine-induced death, ATP luminescence, 48 h; percent of positive-control rescue, neutral wells zero | protection from apoptosis, % (concentration not given with the values) | actives 0.8% (n = 300,000) | AID 435005;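 active means all replicates at 75% or more, or half of them and the mean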;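 further: 0% = cytokine-treated negative control wells and 100% = positive control rescue; higher means more ATP so stronger rescue from cytokine killing; wells of about 40 µL received 100 nL stock; the first replicate is given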
LANA-H2B inh: blocks KSHV LANA binding to histone H2A/H2B | cell-free LANA-H2A/H2B peptide, fluorescence polarization | inhibition, % (no concentration beside the values) | Q9QR71 | actives 0.6% (n = 320,000); in the data active means inhibition mostly above about 10%, no sharp cut-off; inactive means mostly below about 6.7%;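 further: stock transfer was 7.5 nL into about 10 µL; 0% = median of vehicle wells and 100% = median of positive control wells; one replicate is shown; the record names a cut of 25% in any replicate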
T cruzi inh: T. cruzi replication inhibition. T. cruzi beta-gal in NIH3T3, luminescence, 90 h. inhibition, % (test concentration not listed). actives 1.4% (n = 300,000). AID 1885;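 active means mean inhibition across valid replicates above about 55%, limit read from the data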;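 further: signal also drops with host cell toxicity which is not excluded here; 0% = plate median of DMSO wells and 100% = zero luminescence signal; higher percent means less beta-gal luminescence so fewer parasites; stock transfer was 50 nL into about 50 µL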
ALR inh: blocks human ALR sulfhydryl oxidase activity; actives 3.8% (n = 290,000); AID 485317; inhibition, % (test concentration not listed); purified ALR, DTT oxidation, H2O2 HRP-luminol luminescence; P55789;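 active means mean and each replicate at 75% or more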;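 further: stock transfer was 7.5 nL into about 7.5 µL; 0% = neutral wells and 100% = wells with inactivated enzyme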
Target sequence (P55789 whole entry, looked up): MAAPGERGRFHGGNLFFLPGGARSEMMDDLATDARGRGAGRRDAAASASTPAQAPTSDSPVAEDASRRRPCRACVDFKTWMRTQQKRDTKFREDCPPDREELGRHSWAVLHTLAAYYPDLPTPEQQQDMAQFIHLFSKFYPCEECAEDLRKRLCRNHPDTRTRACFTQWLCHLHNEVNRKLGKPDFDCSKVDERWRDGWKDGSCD
Calb FLC: C. albicans growth modulation with fluconazole; C. albicans CaCi-2 (fluconazole-resistant clinical isolate) + fluconazole, Alamar Blue growth, 48 h; growth inhibition, % (concentration not given with the values); actives 0.57% (n = 300,000); AID 1979;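 active means most replicates above 75%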;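 further: all wells also contain fluconazole at 8 µg/ml as a sub-toxic cotreatment; 0% = median of DMSO wells and 100% = median of geldanamycin control wells; wells of about 8 µL received 7.5 nL stock; the first replicate is given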
Beta2AR agonist: human beta-2 adrenergic receptor agonism by FAP | P07550 | Am2.2-beta2AR cells, FAP receptor internalization, flow cytometry; reference of the scale not given here | response, % (test concentration not listed) | actives 0.43% (n = 340,000);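 active means response above a set limit, near 3 SD of response in nonfluorescent compounds, cut at about 42% in these data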;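 further: stock transfer was 100 nL into about 11 µL; a reference agonist was the positive control; negative values mostly stem from fluorescent compounds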
Target sequence (P07550 whole entry, looked up): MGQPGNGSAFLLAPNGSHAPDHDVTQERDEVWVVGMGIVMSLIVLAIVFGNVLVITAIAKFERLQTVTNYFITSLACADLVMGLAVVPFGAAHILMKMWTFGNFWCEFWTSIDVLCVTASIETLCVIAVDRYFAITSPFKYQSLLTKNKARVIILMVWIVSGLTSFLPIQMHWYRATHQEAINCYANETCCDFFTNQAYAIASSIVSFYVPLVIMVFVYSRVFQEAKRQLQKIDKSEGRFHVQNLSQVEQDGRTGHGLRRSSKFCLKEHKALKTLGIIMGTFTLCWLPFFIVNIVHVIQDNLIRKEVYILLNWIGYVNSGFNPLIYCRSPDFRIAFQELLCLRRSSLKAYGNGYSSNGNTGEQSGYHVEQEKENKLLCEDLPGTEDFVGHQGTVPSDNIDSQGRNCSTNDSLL
A1 inh: inhibitors of the anti-apoptotic protein A1, read as caspase activation. actives 0.066% (n = 330,000). caspase activation, % (test concentration not listed). AID 2462. MEF A1-2A-BIM cells, Caspase-Glo 3/7 luminescence, 3 h; percent of clofoctol response, vehicle zero;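 active means over half of replicate activation scores above 10%, or exactly half above 10 with the replicate mean above 10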;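 further: wells of about 30 µL received 50 nL stock; many hits fall short of the cut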
Ecoli rRNA inh: inhibitors of bacterial rRNA selective over humanized ribosomes | E. coli WT GFP vs humanized-ribosome RFP mutants, fluorescence, 24 h; hits give low values; DMSO median 0, no signal -100 | GFP signal change (wild-type ribosome), % (no concentration beside the values) | actives 1.6% (n = 350,000);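 active means significant combined selectivity score with lowered wild-type GFP, culture density cut under 30%, mutant RFP and density less affected; inactive means any of these conditions unmet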; further: one replicate is shown; some compounds called inactive have numbers as strong as hits
Ecoli rRNA inh OD600: second read-out of Ecoli rRNA inh, no call of its own (marks repeat the call); OD600 change, %; measured here: OD600 growth;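 optical density of the mix in the first replicate; 0 = DMSO median and -100 = no signal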
Ecoli rRNA inh RFP: second read-out of Ecoli rRNA inh, no call of its own (marks repeat the call); RFP signal change, %; measured here: RFP humanized mutant strains;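 first replicate; 0 = DMSO median and -100 = no signal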
The depositor's hits bear a star; / = no result given. Some of the compounds tested; count on the stated rates, not on these rows.

SMILES	Beta apoptosis	LANA-H2B inh	T cruzi inh	ALR inh	Calb FLC	Beta2AR agonist	A1 inh	Ecoli rRNA inh	Ecoli rRNA inh OD600	Ecoli rRNA inh RFP
Cc1cccc(/C(N)=N/OC(=O)CCc2ccccc2)c1	-6.1	-1.7	0.6	-12.2	-2.5	-2.8	-0.2	-6.1	-5.8	-4.8
Cc1ccc(C(CC(=O)N2CCCC2)c2ccccc2)c(O)c1 (stereo not drawn)	-14.3	5.2	-10.1	24.4	-1.7	0.1	-0.2	-26.4*	-15.3*	-4.9*
CCCC[C@@H]1CNC(=S)N1CCc1cccc(F)c1	-9.9	1.4	-12.9	/	-7.8	-12.1	-0.1	-6.3	-14.2	-4.3
Cc1ccc(-n2cccn2)cc1	-8.1	1.0	-3.9	-4.2	-4.9	2.7	0.9	8.9	11.3	-3.8
C/C=C/C=C\C(=O)Nc1cccc(C2=NOC3(C2)C[C@H](C(N)=O)N(C(=O)CC#N)C3)c1 (stereo partly drawn)	-11.4	0.6	-12.7	5.2	6.4	-2.1	1.8	12.8	8.3	-0.7
Cc1ccc(NC(=O)CSc2nc(=O)n3cc(C)ccc3n2)c(C)c1	-5.7	3.6	-7.4	-4.5	4.1	1.2	1.5	7.3	9.2	-0.7
Cc1c(Cl)cccc1NC(=O)c1cccc(NC(=O)CCC(=O)O)c1	-10.3	3.8	-11.7	-1.9	-2.5	-1.4	-0.3	/	/	/
COC(=O)[C@H](CC(C)C)NC(=O)Nc1ccccc1F	-6.3	5.2	-8.3	6.2	-1.3	2.1	-0.2	9.4	4.4	0.4
CC1Cc2ccccc2N1C(=O)Cn1cc([N+](=O)[O-])ccc1=O (stereo not drawn)	-9.7	-1.7	/	-10.3	/	35.8	-0.5	-2.1	-0.9	-2.2
CCCCn1c(N)c(C(=S)NC(=O)CC(C)(C)C)c(=O)n(C)c1=O	-5.4	0.7	8.2	39.8	38.6	2.7	-1.9	-51.2	-80.1	-24.9
CC(=O)N1CCN(S(=O)(=O)c2cccc(C(=O)Nc3ccc4c(c3)CCC4)c2)CC1	-7.3	1.2	50.4	40.5	2.9	-3.3	0.4	/	/	/
COc1ccccc1/C=c1\sc2nc(-c3ccccc3OC)nn2c1=O	-5.6	-3.1	/	-4.8	/	-7.8	/	/	/	/
COc1ccc(/C=C(\NC(=O)c2ccc(C)cc2)C(=O)Nc2c(C)n(C)n(-c3ccccc3)c2=O)cc1	0.2	-5.6	-22.4	-9.9	-2.1	-2.4	-0.2	17.1	6.8	5.1
CCn1c(CNC(=O)c2ccccc2Cl)cc2ccccc21	-2.3	1.6	3.5	0.3	4.1	-3.8	0.2	5.2	1.1	13.0
O=S(=O)(NCCc1ccccc1F)c1cccc(S(=O)(=O)N2CCOCC2)c1	/	2.7	20.4	-6.2	0.9	1.7	-1.1	/	/	/
O=C(Nc1ccc(F)cc1)c1cccc(N2C(=O)C3C4C=CC(C5CC45)C3C2=O)c1 (stereo not drawn)	3.0	-5.2	-9.5	-0.6	22.7	6.6	0.2	-19.3	-16.4	7.8
CC(=O)c1cccc(NC(=O)CN2C(=O)C3C4C=CC(C4)C3C2=O)c1 (stereo not drawn)	-7.8	2.7	-5.0	2.4	24.8	-2.3	-0.1	/	/	/
CC1=C(O)C(=O)OC1c1c(Cl)cccc1Cl (stereo not drawn)	0.3	3.7	10.8	-4.5	-2.3	7.2	-0.4	-28.9*	-4.2*	-0.1*
CC(=O)N1CCN(C(=O)c2ccc(S(=O)(=O)Nc3cccc(C(F)(F)F)c3)cc2)CC1	1.8	-0.5	3.5	4.6	-1.9	-0.7	1.8	0.1	-0.2	0.4
COc1ccccc1C/C(N)=N/OC(=O)COc1ccc(C)cc1C	0.0	6.9	14.8	1.5	23.9	2.6	-0.5	-7.3	-29.4	-10.4
COc1cccc(C2C(C(=O)Nc3cccnc3)=C(C)Nc3nnnn32)c1OC (stereo not drawn)	-6.6	-2.5	-5.3	/	-1.3	0.3	-0.5	/	/	/
COc1ccccc1N1CCN(C2CCCN(C(=O)c3cc(C)oc3C)C2)CC1 (stereo not drawn)	/	/	8.8	39.7	-8.1	11.4	/	2.0	-1.7	-0.5
O=c1oc(-c2cccc(S(=O)(=O)N3CCOCC3)c2)nc2ccccc12	-1.4	1.7	-24.0	1.1	-0.1	13.9	-1.0	/	/	/
Cc1nc2scc(C)n2c(=O)c1S(=O)(=O)NCC1CCN(Cc2ccc(F)cc2)CC1	-4.2	-2.7	19.4	-5.1	-10.0	2.1	-0.3	11.2	15.1	0.8
O=C(NC(=S)Nc1ccc(N2CCOCC2)cc1)c1ccc(Cl)cc1	5.1	2.3	-1.2	-7.5	-4.3	-4.8	0.1	/	/	/
CNC(C)C#Cc1ccc2c(=O)c3ccccc3oc2c1 (stereo not drawn)	-6.6	-0.7	3.7	47.5	-15.2	2.0	-0.6	12.9	12.0	2.7
O=C(O)c1ccc(C(=O)c2ccc3c(c2)C(=O)N(Cc2ccco2)C3=O)cc1	3.8	-0.5	0.4	/	-0.4	7.9	0.4	/	/	/
COC(=O)c1cccc(NC(=O)CC2C(=O)NCCN2C(=O)Nc2ccccc2)c1 (stereo not drawn)	-3.6	188.5*	-7.0	-2.1	2.3	0.6	-0.6	1.5	-7.1	-2.4
Cc1ccc(Cn2nnc3c(=O)n(CC(=O)N4CCCCC4)cnc32)cc1	-0.7	3.3	-2.4	-4.2	-3.1	2.8	-0.4	/	/	/
COc1ccc(C(C)NC(=O)c2ccc(Br)cc2)cc1OC (stereo not drawn)	-1.8	-0.1	6.7	-1.4	-10.7	0.1	-0.9	0.4	9.4	-2.0
CC1=NN(c2ccccc2)C(=O)/C1=C/c1cn(C)c2ccccc12	-7.8	-0.6	3.5	/	-12.3	-0.5	-0.1	4.2	14.4	-2.0
Cc1csc(SC(C)C(=O)Nc2ccccc2C)n1 (stereo not drawn)	0.9	-3.6	/	-6.7	/	8.6	0.5	2.7	-1.0	-1.9
CCc1sc(C(=O)NNC(=O)CNC(=O)c2ccccc2F)cc1C	-1.9	0.2	/	3.3	/	8.7	-0.3	7.1	6.1	2.5
Cc1ccc2nc(-c3ccc(NC(=O)C(C)Sc4nncs4)cc3)sc2c1 (stereo not drawn)	-4.4	-11.7	46.0	-1.0	1.4	37.5	-1.5	8.7	8.5	1.7
CCc1c(C)nc(SCC(=O)NNC(=O)c2ccco2)[nH]c1=O	-1.7	7.7	-3.2	-0.3	-15.4	-2.5	-0.7	15.0	1.2	0.4
CC[C@H](C)C1NC(=O)[C@H](CC(=O)O)NC(=O)c2cc([N+](=O)[O-])cc(I)c2NCCC(C(N)=O)NC1=O (stereo partly drawn)	-11.6	2.2	-7.9	-3.8	1.2	2.5	0.0	/	/	/
CCOCCCNC(=O)c1cc2c(=O)n(CC)c3ccccc3c2s1	6.8	-2.0	6.4	/	5.0	10.6	0.0	-18.4	-20.6	-0.3
O=C(CCCn1c(=S)[nH]c2cc3c(cc2c1=O)OCO3)N1CCN(c2ncccn2)CC1	-5.3	6.6	4.4	19.8	-4.0	-3.6	0.6	/	/	/
COc1ccccc1C(=O)NC(=O)COC(=O)C1CC1C (stereo not drawn)	/	-1.4	-6.5	-1.7	-1.6	5.8	-2.0	0.7	5.0	-1.2
C=CCn1c(=O)n(C(=O)OCC)c2cc(Br)ccc21	0.6	-1.2	-7.2	-2.3	-0.7	-5.2	0.0	-19.3	-17.7	-1.6
N/C(Cc1ccc(Cl)cc1Cl)=N\OC(=O)c1ccccc1	11.0	4.0	5.8	-1.9	117.8*	-0.9	2.1	-30.6*	-23.4*	12.4*
Cc1ccccc1S(=O)Cc1ccc(C(=O)NCCN2CCOCC2)o1 (stereo not drawn)	-6.8	-3.3	-18.2	-1.7	41.1	-4.1	-0.5	-0.8	1.3	-2.2
CCOc1ccc(C(=O)c2cc([N+](=O)[O-])ccc2Cl)cc1	-9.0	/	5.2	/	5.7	-1.2	-1.5	/	/	/
CCOc1ccc(C(=O)Nc2cccc(C(=O)O)c2C)cc1Cl	4.3	3.7	-12.7	-1.1	0.9	-4.8	-9.3	-2.1	-15.9	-2.6
CCC(CC)NC(=O)c1cc(S(=O)(=O)N2CCCCC2)ccc1N1CCOCC1	-3.2	0.9	/	-1.4	/	-1.9	0.3	11.8	2.0	-0.2
O=C1CC(c2ccco2)=Nc2ccccc2N1	-6.7	-0.6	2.5	-5.5	-10.3	-58.4	0.7	/	/	/
CCOC(=O)c1ccccc1NS(=O)(=O)c1ccc(OC)cc1	9.5	-2.2	-76.0	-4.0	2.0	-3.0	0.6	-9.3	-11.6	4.0
COC(=O)c1ccc(NC(=O)CNc2ccccc2)cc1	4.5	-1.8	4.0	0.1	-2.1	-0.6	-0.4	2.6	-10.3	0.3
O=C(NCc1ccncc1)C1CCCN(S(=O)(=O)c2ccc(Br)cc2)C1 (stereo not drawn)	-4.8	-4.0	-2.6	3.4	2.2	0.6	0.2	-4.2	12.1	7.2
CCCN1C2CCCC1CC(NC(=S)Nc1ccc(OC)cc1)C2 (stereo not drawn)	-7.8	-2.5	-12.6	-3.8	-2.3	0.6	-0.6	8.8	11.8	0.3
O=C(c1ccc2nc[nH]c2c1)N1CCN(c2ncc(C(F)(F)F)cc2Cl)CC1	4.7	2.8	27.4	12.7	-2.7	-8.6	-0.5	-4.8	-25.1	-2.9
O=S(=O)(Nc1nc2ccccc2nc1Cl)c1ccc2c(c1)OCCO2	-14.0	-2.4	0.5	-2.4	5.5	9.2	-0.5	-7.5	-12.4	-5.8
O=C1Nc2ccccc2C1Cc1ccccc1 (stereo not drawn)	-2.5	2.7	-4.7	-5.1	0.8	3.6	0.2	12.1	9.9	3.4
CCOC(=O)c1ccc(CNC(=O)Cn2nnc(-c3ccccc3)n2)o1	-7.3	-3.2	11.4	9.1	-1.4	3.1	0.4	1.8	1.0	1.1
COc1ccc(CS(=O)c2nc(C)cc(C)c2S(C)(=O)=O)cc1 (stereo not drawn)	-3.3	2.2	-10.9	14.3	-3.0	-7.4	-0.1	13.3	12.3	2.0
COc1cccc(/C=C2\N=C(SC)SC2=O)c1OC	0.1	-4.5	2.3	53.9	-4.3	3.1	0.3	/	/	/
COc1cc2cccc(OC)c(=O)c2c(OC)c1OC	-6.2	-3.3	-3.1	-7.6	9.0	2.8	-0.6	/	/	/
CCN(C[C@H]1N[C@@](Cc2ccccc2)(C(=O)OC)[C@H]2C(=O)N(C)C(=O)[C@@H]12)C(=O)Nc1ccc(F)cc1	-8.7	-3.2	/	/	/	-3.8	1.7	-1.6	1.2	-0.3

Rewritten with two lines to a compound: entries from further up.
Values run as follows: Beta apoptosis, LANA-H2B inh, T cruzi inh, ALR inh, Calb FLC, Beta2AR agonist, A1 inh, Ecoli rRNA inh, Ecoli rRNA inh OD600, Ecoli rRNA inh RFP
O=S(=O)(Nc1nc2ccccc2nc1Cl)c1ccc2c(c1)OCCO2
 : -14.0, -2.4, 0.5, -2.4, 5.5, 9.2, -0.5, -7.5, -12.4, -5.8
O=C1Nc2ccccc2C1Cc1ccccc1 (stereo not drawn)
 : -2.5, 2.7, -4.7, -5.1, 0.8, 3.6, 0.2, 12.1, 9.9, 3.4
